# gsp ag: gsp mutant agonism. gsp mutant cells, cAMP HTRF, 30 min; control for the full effect not named in the record. Potency, µM (doses to about 76.9 µM), without a hit: at the top dose activation (cAMP increase), usual class: activators. 0.13% of 340,000 active; active = well fitted activation curve with a large enough effect; inconclusive = small, poorly fitted or top-dose-only effect, or another doubt; inactive = no such curve, though single readings can be large or run the other way; cell line not stated here;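 further: phosphodiesterase inhibitor Ro 20-1724 added with compounds to block cAMP breakdown; potency means the concentration at half of the fitted maximal effect; nearly all actives have a fitted effect of over 60% in size; about a fifth of the inactives were tested at one dose only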
#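 Cells in DMEM/10% FBS with G418 were pretreated with compounds in DMSO plus […] (300 uM stock) for 30 min at 37C. cAMP was measured by HTRF (cAMP-d2 plus anti-cAMP antibody-K) after 30 min at room temperature.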
# gsp antagonist: gsp mutant antagonism; gsp-mutant cells, cAMP HTRF, 30 min; control for the full effect not named in the record; Potency, µM (series often up to 76.9 µM), for inactives: at the top dose activity change, negative = inhibition, most hits filed as inhibitors; 0.4% of 340,000 active; AID 624288; active = falling curve of any shape with a large fitted effect; inconclusive = falling curve, mostly with a smaller effect; inactive = flat or rising curve; cell line not stated here;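 further: intracellular cAMP measured with PDE inhibitor Ro 20-1724 present during compound exposure; potency means the concentration at half of the fitted maximal effect; on the % scale 0 is the no-effect control and ±100 the full control effect; nearly all actives have a fitted effect of over 65% in size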
#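 G418-selected cells were plated in DMEM/10% FBS for 16-24 h at 37C, then treated with compounds plus the PDE inhibitor […] (300 uM solution added) for 30 min at 37C. Intracellular cAMP was measured by HTRF after 30 min lysis at room temperature.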
# CtBP-E1A inh: CtBP/E1A binding inhibition; AlphaScreen GST-E1A/His-CtBP binding, 1536-well; hits give low values; control for the full effect not named in the record; activity change, % (test concentration not listed); AID 651724; 0.49% of 340,000 active; in the data active means activity change below about -65%; inconclusive means about -30% to -65%; inactive means above about -30%; further: on the % scale 0 is the no-effect control and ±100 the full control effect; compound concentration not given in the record
#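 AlphaScreen with 125 nM GST-E1A and 125 nM His-CtBP (5X stocks) in Tris pH 8.0, 300 mM NaCl, BSA, Tween 20, TCEP. Compounds preincubated 2 h at 37 deg C, then glutathione donor/nickel acceptor beads added for 1 h at 37 deg C in dark.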
# D2 potentiator: potentiates the human D2 dopamine receptor allosterically | DiscoveRx D2 beta-arrestin cells, luminescence, 90 min; 100% = 57 uM dopamine signal | AID 624464 | P14416 | potentiation, % (concentration not given with the values) | 0.23% of 360,000 active; active = potentiation of 50% or more; inconclusive = 30% to 50%; inactive = 30% or less;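 further: compound concentration not given in the record; tested on top of an EC20 dose of dopamine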
# Target sequence (P14416 whole entry, looked up): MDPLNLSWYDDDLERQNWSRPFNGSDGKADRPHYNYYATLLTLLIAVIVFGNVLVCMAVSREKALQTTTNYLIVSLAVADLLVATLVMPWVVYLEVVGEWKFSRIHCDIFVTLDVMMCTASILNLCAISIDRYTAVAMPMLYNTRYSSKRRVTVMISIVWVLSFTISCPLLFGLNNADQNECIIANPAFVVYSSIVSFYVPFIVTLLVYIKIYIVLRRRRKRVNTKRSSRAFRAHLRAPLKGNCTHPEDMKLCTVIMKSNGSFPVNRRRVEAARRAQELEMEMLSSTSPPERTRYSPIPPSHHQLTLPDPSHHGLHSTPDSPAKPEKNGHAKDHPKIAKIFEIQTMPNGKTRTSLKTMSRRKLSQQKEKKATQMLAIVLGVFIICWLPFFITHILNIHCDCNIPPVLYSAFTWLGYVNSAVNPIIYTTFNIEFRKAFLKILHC
#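 PathHunter beta-arrestin assay in DiscoveRx D2 cells. Compounds were added with an EC20 of dopamine (50 nM final) for 90 min at 37 deg C. Luminescence was read 1 h after detection reagent, with 57 uM dopamine as the EC100 control.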
# D2 agonist: activates the human D2 dopamine receptor. P14416. activation, % (concentration not given with the values). DiscoveRx PathHunter D2 beta-arrestin, luminescence, 90 min; 100% = 57 uM dopamine signal. 0.084% of 360,000 active; in the data active = activation above about 40%; inconclusive = about 15% to 40%; inactive = below about 15%; further: compound concentration not given in the record; the text of the record calls up to 30% inactive
#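 DiscoveRx PathHunter D2 beta-arrestin cells (2,100/well) attached overnight, then compound-stimulated 90 min at 37 C in HBSS/10 mM HEPES/0.1% Tween-20 buffer; beta-galactosidase complementation read by luminescence after 1 h at ambient temperature. Dopamine 57 uM final (EC100) as control.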
# Six1-Eya2 blk: Six1/Eya2 interaction inhibition. activity change, % (no concentration beside the values). Q15475+O00167. AlphaScreen GST-Six1/His-Eya2 binding, biochemical; hits give low values; control for the full effect not named in the record. 0.56% of 360,000 active. AID 651725; in the data active = activity change below about -65%; inconclusive = about -30% to -65%; inactive = above about -30%; further: on the % scale 0 is the no-effect control and ±100 the full control effect; compound concentration not given in the record
#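 Compounds are tested against tagged Six1 and Eya2 proteins bridged by glutathione donor and nickel acceptor beads; after a one-hour incubation at 37 °C without light, AlphaScreen emission is recorded.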
# An asterisk follows results filed as active; ? = inconclusive; / = not tested or not shown; [ ] = dose if it differs, or a comment. No enrichment for hits (roughly 1.4% active in at least one column).
# Sample of the layout (2 entries):
gsp ag | gsp antagonist | CtBP-E1A inh | D2 potentiator | D2 agonist | Six1-Eya2 blk | Compound
/ | -13% | 3 | -10 | -5.5 | 0 | O=C(COc1ccc2c(-c3ccccc3)cc(=O)oc2c1)NCc1ccccn1
2%[15.4 µM] | 2% | 2 | -8 | -4.2 | 1 | O=C(NCC1CCCO1)/C(=C/c1ccccc1F)NC(=O)c1ccccc1 (stereo not given)

# The whole of this part, from the start:
gsp ag | gsp antagonist | CtBP-E1A inh | D2 potentiator | D2 agonist | Six1-Eya2 blk | Compound
/ | -13% | 3 | -10 | -5.5 | 0 | O=C(COc1ccc2c(-c3ccccc3)cc(=O)oc2c1)NCc1ccccn1
2%[15.4 µM] | 2% | 2 | -8 | -4.2 | 1 | O=C(NCC1CCCO1)/C(=C/c1ccccc1F)NC(=O)c1ccccc1 (stereo not given)
-2% | 8% | 3 | -5 | -2.2 | 4 | CCCCNC(=O)N1CCN(C(=O)c2ccco2)CC1
3% | -6% | -9 | 3 | -4.9 | 3 | O=C(Nc1ncnc2c1ncn2C1OC(COC(=O)c2ccccc2)C(F)C1O)c1ccccc1 (stereo not given)
3% | 7% | 0 | -38 | -2.6 | 22 | CCc1cc(-c2n[nH]c(=S)n2N)n(C)n1
0% | 0% | / | -35 | -6.0 | 10 | O=c1cc(-c2ccccc2)c2c(O)cc(O)cc2o1
0%[15.4 µM] | -13% | 0 | -3 | -2.5 | -5 | COc1ccc2c(c1)NC(C)(C)C=C2C
0% | -3% | -1 | -5 | -2.9 | -4 | C=CCNC(=O)/C(C#N)=C/c1ccc(C(=O)O)cc1
-51%[inhibitor] | -7% | 9 | 0 | -1.3 | 5 | CCc1nc(NCCO)c(C#N)c2c1CSC(C)(C)C2
-6% | -5% | 2 | -4 | -1.2 | 2 | CC1(C)CC(=O)C2=C(C1)N(c1ccc(F)cc1)C(=O)CC2c1ccsc1 (stereo not given)
8% | 2% | -9 | 10 | 5.3 | -15 | CCOC(=O)C1=C(Cc2ccc(Cl)cc2)C(=O)c2ccccc2C1=O
/ | / | 4 | 0 | -6.1 | 6 | CCCC(=O)N1CCC1(C)C(=O)NCc1ccc(C(C)C)cc1 (stereo not given)

# Part of the list above, comma-delimited:
SMILES,gsp ag,gsp antagonist,CtBP-E1A inh,D2 potentiator,D2 agonist,Six1-Eya2 blk
COc1ccc2c(c1)NC(C)(C)C=C2C,0%[15.4 µM],-13%,0,-3,-2.5,-5
C=CCNC(=O)/C(C#N)=C/c1ccc(C(=O)O)cc1,0%,-3%,-1,-5,-2.9,-4
CCc1nc(NCCO)c(C#N)c2c1CSC(C)(C)C2,-51%[inhibitor],-7%,9,0,-1.3,5
CC1(C)CC(=O)C2=C(C1)N(c1ccc(F)cc1)C(=O)CC2c1ccsc1 (stereo not given),-6%,-5%,2,-4,-1.2,2
CCOC(=O)C1=C(Cc2ccc(Cl)cc2)C(=O)c2ccccc2C1=O,8%,2%,-9,10,5.3,-15

# Remaining list, next part.
gsp ag | gsp antagonist | CtBP-E1A inh | D2 potentiator | D2 agonist | Six1-Eya2 blk | Compound
0%[15.4 µM] | -14% | -2 | -10 | -1.3 | -8 | O=C(OC(c1ccccc1)c1nccc2ccccc12)c1ccccc1 (stereo not given)
-15% | 4% | 2 | 1 | -3.8 | 0 | Cc1ccc(NC(=O)COC(=O)COc2ccc3ccc(=O)oc3c2)cc1[N+](=O)[O-]
/ | 1% | 7 | -4 | -3.5 | 1 | N[C@H]1CONC1=O
-9% | 0% | / | -1 | -0.7 | 11 | Cc1ccc(S(=O)(=O)CCC(=O)OCC(=O)NC(C)c2ccccc2)cc1 (stereo not given)
-5% | -16% | -4 | -13 | -1.4 | -6 | CCOC(=O)/C(C#N)=N/Nc1ccc(S(=O)(=O)N2CCc3ccccc32)cc1
-81%[inhibitor] | / | 4 | 9 | -2.7 | 9 | CC1=C(C(=O)N(C)C)CC(CC(=O)NCc2cccc3ccccc23)C(=O)N1CCCN1CCCC1=O (stereo not given)
-14% | 3% | -22 | -33 | -4.4 | -23 | COc1ccc(NC(=O)/C=C/c2ccccc2[N+](=O)[O-])c(OC)c1
-31%[inhibitor] | 7% | 5 | 0 | -0.1 | -3 | Cc1cc(C(=O)N2CCN(Cc3ccc4c(c3)OCO4)CC2)on1
-46%[inhibitor] | 9% | 1 | 6 | -2.0 | 25 | COCCn1ccc(O)c(Cc2ccccc2)c1=O
9%[15.4 µM] | 7% | -3 | 1 | 3.0 | 4 | COc1ccc(NC(=O)Cn2cc(C#N)c3ccccc32)cc1
/ | 1% | 0 | -6 | 1.0 | 7 | COC(=O)c1ccc2nc3c(cc2c1)[C@@H]1CCN2C(=O)CCC[C@H](C3)[C@H]12
4%[15.4 µM] | 1% | 0 | -6 | -3.8 | 1 | CCC1SC(CC)C(=O)N(CC(=O)NCCc2ccccc2)C1=O (stereo not given)
-3% | -4% | -1 | -8 | -4.8 | 5 | Cc1onc(-c2c(Cl)cccc2Cl)c1C(=O)NC1C(=O)N2C1SC(C)(C)C2C(=O)O (stereo not given)
-20%[15.4 µM] | -9% | 0 | -18 | -4.4 | 0 | CCS(=O)(=O)c1ccc2oc(=O)c(/C=C(\O)c3ccc(Cl)cc3)nc2c1
? | 24% | 11 | 0 | -3.1 | -3 | CCOCCCn1c(SCC(=O)Nc2ccc(NC(C)=O)cc2)nc2ccccc2c1=O
? | -7% | -1 | -2 | 2.4 | -4 | Cc1ccc(C)c(C(C)NC(=S)NC2CCCCC2)c1 (stereo not given)
-4% | ? | 44 | -8 | -1.7 | 19 | CCOC(=O)c1ccccc1NS(=O)(=O)c1ccccc1F
/ | 5% | -8 | -13 | -3.2 | -8 | O=C(CCCCCNC(=O)N1CCn2c1nc1ccccc12)N[C@@H](C(=O)O)c1ccccc1
8% | / | 0 | -23 | 1.4 | -11 | COc1ccc(CN2CCN(C(=O)c3ccccc3C(=O)c3ccccc3)CC2)cc1F
-36%[inhibitor] | 3% | 6 | -6 | 9.1 | 0 | CC(Sc1ncnc2sccc12)C(=O)Nc1ccc(C(N)=O)cc1 (stereo not given)
-14% | -16% | 3 | 1 | -0.6 | 2 | CCCCc1ccc(C(=O)NC(C(=O)O)C(C)C)cc1 (stereo not given)
-89%[inhibitor] | -1% | / | -5 | -5.7 | -4 | Cc1ccc(/C=N/NC(=O)CNC(=O)c2cccc([N+](=O)[O-])c2C)o1
-15% | 11% | 5 | -10 | -0.2 | 1 | NS(=O)(=O)c1cccc(NC(=O)c2cccs2)c1
-28% | 2% | -23 | -9 | 5.9 | 8 | COc1ccc(NC(=O)COC(=O)Cn2nnc3ccccc32)cc1
-9% | -7% | 0 | -2 | -1.3 | 10 | CC#CC(=O)N1CCC(CCc2ccccc2)(C(=O)OCC)CC1
4% | 3% | -1 | -15 | -4.4 | 1 | COC(=O)c1c(C)cc(OC(C)=O)c(C)c1OC(C)=O
? | 6% | 5 | -1 | 0.4 | -2 | O=C(COc1ccc(N2C(=O)c3ccccc3C2=O)cc1)c1ccccc1
12%[15.4 µM] | -2% | 11 | -3 | 2.2 | 4 | O=C(Nc1cccc(-c2nn[nH]n2)c1)c1csc2c1CCCC2
? | -3% | 4 | -12 | -2.1 | 53 | O=C(O)c1cccc(CSc2nnc(Cc3ccccc3)o2)c1
? | -10% | / | -20 | -4.6 | -2 | C=CCOc1ccc2ccccc2c1CNn1c(C)n[nH]c1=S
-68%[inhibitor] | 10% | 0 | -19 | -1.1 | -5 | Cc1ccccc1C(=O)c1cccn1CC(=O)NCc1ccccc1
-6% | 5% | 3 | -3 | -0.3 | 4 | COc1ccc(OC)c(-n2nnnc2SCC(=O)O)c1
-7% | 7% | 19 | 0 | 0.7 | 4 | COc1ccc(CNC(=O)CC(C)c2ccccc2)cc1 (stereo not given)
18% | 7% | -15 | -15 | -4.4 | -12 | Cc1cc(C)n(-c2nc(SCCN(C)C)c3c4c(sc3n2)COC(C)(C)C4)n1
-1% | -8% | 0 | 7 | -1.2 | 6 | Cc1ccc(S(=O)(=O)NCCC(=O)O)cc1
? | 5% | -7 | 0 | -4.8 | -5 | O=C(COc1ncnc2c(Cl)cc(Cl)cc12)NCCC1=CCCCC1

# 3 compounds from above, arranged by length of the SMILES, lowest first.
gsp ag | gsp antagonist | CtBP-E1A inh | D2 potentiator | D2 agonist | Six1-Eya2 blk | Compound
-28% | 2% | -23 | -9 | 5.9 | 8 | COc1ccc(NC(=O)COC(=O)Cn2nnc3ccccc32)cc1
18% | 7% | -15 | -15 | -4.4 | -12 | Cc1cc(C)n(-c2nc(SCCN(C)C)c3c4c(sc3n2)COC(C)(C)C4)n1
/ | 5% | -8 | -13 | -3.2 | -8 | O=C(CCCCCNC(=O)N1CCn2c1nc1ccccc12)N[C@@H](C(=O)O)c1ccccc1

# Other records.
gsp ag | gsp antagonist | CtBP-E1A inh | D2 potentiator | D2 agonist | Six1-Eya2 blk | Compound
3% | -5% | 5 | -5 | -0.9 | 34 | Cc1cc(C)cc(N(CC(=O)NC(C)(C)C)C(=O)CNC(=O)c2cccs2)c1
16%[15.4 µM] | 0% | 22 | -9 | -1.9 | -4 | CCOc1ccccc1C(=O)NCC(=O)Nc1ccc(-c2ccccc2)cc1
-42%[inhibitor] | 5% | 9 | -7 | -5.1 | -2 | O=C(Nc1cc(Cl)ccc1Cl)c1noc2c1CCCC2
-22% | 15% | 0 | -7 | -1.5 | 1 | O=C(CC1CCCC1)NCCc1cn2ccccc2n1
/ | -13% | 8 | -5 | 2.6 | 9 | O=C(Nc1ccc(Cl)cc1)Nc1ccc(Cl)c(Cl)c1
9% | 1% | -2 | -2 | -11 | -3 | O=C1c2ccccc2-c2c1cccc2C(=O)N1CCCCC1
-1% | -3% | / | -11 | -6.1 | -1 | Cc1ccc(C)c(Cn2c3ccccc3c3cnn(CC(=O)NCCCN4CCCCC4)c(=O)c32)c1
-2% | -10% | -2 | 15 | -2.2 | -3 | O=C(Nc1ccc2nc(-c3cccnc3)[nH]c2c1)C12CC3CC(CC(C3)C1)C2
/ | -2% | 0 | -12 | -2.2 | 4 | Cc1noc(C)c1S(=O)(=O)Nc1ccc2c(c1)CC(=O)N([C@H](C)CO)C[C@H](C)[C@@H](CN(C)CC1CC1)O2

# Source: PubChem BioAssay
